# Assay outcomes deposited in PubChem BioAssay by Broad Institute.
# Tg IFNy HTS: T. gondii growth inhibition with IFN-gamma, primary screen, cell-based; Toxoplasma gondii growth in IFN-gamma-treated host cells; stronger effect = lower value; reference of the scale not given here; activity change, negative = inhibition, %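 (about 20 µM by stock and volumes)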; hit rate 3.8% among 69,000;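 active = below -70%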;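 also: host cells are HeLa cells infected with Toxoplasma gondii; parasite growth read as luciferase light; one replicate is shown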
# * hit, by the source's call; i = inactive; & = joins results of further samples.
# Start of the listing, in advance:
SMILES,Tg IFNy HTS
CN(Cc1cc(C(C)(C)C)n[nH]1)Cc1cccc2c1OCO2,-3
COc1ccccc1CC(=O)Nc1ccc(-c2nc(Cn3cc(C)cn3)c(C)o2)cc1,-95*
CCc1ccccc1Nc1ncnc2c1cnn2-c1ccc(Cl)cc1,-52
CCN1C(=O)N(C2Cc3ccccc3C2)C(=O)C12CCN(Cc1cc3c(cc1Cl)OCO3)CC2,18
Cc1oc(-c2ccccc2Cl)cc1C(=O)NCc1ccncc1,4
CCN(CC)c1ncnc2c1cnn2CC(=O)Nc1ccc2c(c1)OCCO2,44
O=C(CC1CCCC1)NC1CCC2(CCC(=O)N2)CC1 (stereo not given),174
O=C(Cc1ccccc1[N+](=O)[O-])NCCCN1CCOCC1,7
O=C(C[C@@H]1CC[C@@H]2[C@H](COC[C@H](O)CN2CC2CCOCC2)O1)NCc1ccc(Cl)cc1,32
O=C(Nc1ccncc1)Nc1ccc(-c2nc(N3CCOCC3)nc(N3C4CCC3COC4)n2)cc1,-74*
CCN1C(=O)CCc2cc(NC(=O)Cc3c(F)cccc3Cl)ccc21,14
CCCNC(=O)N1[C@@H]2CNC[C@H]1C2c1ccc(-c2ccccc2)cc1 (stereo not given in full),7&14
Cc1ccc(CCNc2nc(-c3nnc(-c4ccccc4)o3)nc3ccccc23)cc1,-14
CS(=O)(=O)N1CCN(C(=O)NCc2ccccc2)CC2(CNC(=O)C2)C1 (stereo not given),0
COCc1cnc2n1CCN(C(=O)COc1ccc(C)cc1)C2C (stereo not given),-1
O=C(Nc1ccc(F)cc1)N1CC(=O)N2[C@@H](CO)[C@@H](c3ccc(C4=CCCC4)cc3)[C@@H]2C1,-38
CCCN1C(=O)CCc2cc(NS(=O)(=O)c3ccc(CC)cc3)ccc21,-82*

# This part in full, previewed entries included:
SMILES,Tg IFNy HTS
CN(Cc1cc(C(C)(C)C)n[nH]1)Cc1cccc2c1OCO2,-3
COc1ccccc1CC(=O)Nc1ccc(-c2nc(Cn3cc(C)cn3)c(C)o2)cc1,-95*
CCc1ccccc1Nc1ncnc2c1cnn2-c1ccc(Cl)cc1,-52
CCN1C(=O)N(C2Cc3ccccc3C2)C(=O)C12CCN(Cc1cc3c(cc1Cl)OCO3)CC2,18
Cc1oc(-c2ccccc2Cl)cc1C(=O)NCc1ccncc1,4
CCN(CC)c1ncnc2c1cnn2CC(=O)Nc1ccc2c(c1)OCCO2,44
O=C(CC1CCCC1)NC1CCC2(CCC(=O)N2)CC1 (stereo not given),174
O=C(Cc1ccccc1[N+](=O)[O-])NCCCN1CCOCC1,7
O=C(C[C@@H]1CC[C@@H]2[C@H](COC[C@H](O)CN2CC2CCOCC2)O1)NCc1ccc(Cl)cc1,32
O=C(Nc1ccncc1)Nc1ccc(-c2nc(N3CCOCC3)nc(N3C4CCC3COC4)n2)cc1,-74*
CCN1C(=O)CCc2cc(NC(=O)Cc3c(F)cccc3Cl)ccc21,14
CCCNC(=O)N1[C@@H]2CNC[C@H]1C2c1ccc(-c2ccccc2)cc1 (stereo not given in full),7&14
Cc1ccc(CCNc2nc(-c3nnc(-c4ccccc4)o3)nc3ccccc23)cc1,-14
CS(=O)(=O)N1CCN(C(=O)NCc2ccccc2)CC2(CNC(=O)C2)C1 (stereo not given),0
COCc1cnc2n1CCN(C(=O)COc1ccc(C)cc1)C2C (stereo not given),-1
O=C(Nc1ccc(F)cc1)N1CC(=O)N2[C@@H](CO)[C@@H](c3ccc(C4=CCCC4)cc3)[C@@H]2C1,-38
CCCN1C(=O)CCc2cc(NS(=O)(=O)c3ccc(CC)cc3)ccc21,-82*
CCOc1ccc(-c2nc3c(s2)CN(S(=O)(=O)c2ccccc2Cl)CC3)cc1,-89*
Cc1nc(-c2ccc(Cl)cc2)sc1CCNC(=O)c1ccccc1F,-34
Cc1ccc(OCC(=O)Nc2ccc(-c3nc(-c4ccccc4)co3)cc2)cc1,259
CN1CCC2(CC1)CN(S(=O)(=O)c1ccc(C#N)cc1)Cc1ccccc12,2
Cc1ccccc1NC(=O)C(=O)NCCc1sc(-c2ccc(Cl)cc2)nc1C,27
Cc1ccccc1-c1ccc(C2[C@H]3CNC[C@@H]2N3Cc2cccnc2)cc1 (stereo not given in full),-2
Nc1ccc(-c2nc3ncccc3o2)c(Cl)c1,328
Cc1oncc1C(=O)N1CCC2(CC1)CCN(c1ncccn1)C2,-43
Cc1cc(C)cc(NC(=O)N2CCN(Cc3nc(-c4cccc(Cl)c4)oc3C)CC2)c1,-1
CO[C@H]1CN(C)C(=O)c2ccc(NC(C)=O)cc2OC[C@H](C)N(C(=O)c2cnccn2)C[C@@H]1C,162
O=S(=O)(NC1CCN(c2nc(-c3ccccc3)cs2)CC1)c1ccccc1,387
CCN(CC)S(=O)(=O)c1ccc2[nH]c(=O)ccc2c1,i
O=C(C#Cc1ccccc1)Nc1ccc(OC(F)(F)F)cc1,-59
CC(C)CN1CCN(C(=O)NCc2ccc(F)cc2)C(C)C1=O (stereo not given),-4
CCOc1ccc2nc(SCC(=O)c3ccc4c(c3)OCCO4)c(C#N)cc2c1,-50
NC(=O)c1csc(N2CCC(CO)(Cc3ccccc3)CC2)n1,-8
CO[C@H]1CN(C)C(=O)c2ccc(NC(=O)c3cccc(F)c3)cc2OC[C@@H](C)NC[C@H]1C,-41
COCCNC(=O)c1nc(Nc2cccc(C)c2)c2ccccc2n1,-33
O=C(O)CC1SC(c2cccc(Cl)c2)=NC1=O (stereo not given),25
CCn1c(C2CCCN(S(=O)(=O)C3CC3)C2)nn(CCN(C)C)c1=O (stereo not given),0
Cc1ccc(-c2nc(C)c(CCNC(=O)c3cccs3)s2)cc1,i
CN(C)C(=O)N1CCC[C@]2(C(=O)NCC3CC3)CN(Cc3cnn(C)c3)C[C@H]2C1,-1
CN(C)C(=O)N1CCC(c2nnc3ccc(C(=O)CCN4CCOCC4)cn23)C1 (stereo not given),25
C[C@@H]1CCCCO[C@@H](CN(C)CC2CCCCC2)[C@@H](C)CN([C@@H](C)CO)C(=O)c2cc(NC(=O)Nc3ccc(C(F)(F)F)cc3)ccc2O1,145
C=CCNc1nnc(SCC(=O)N2N=CCC2c2ccccc2)s1 (stereo not given),20
CCc1ncc2c(n1)CN(C(=O)c1cc(=O)n(C)c3ccccc13)C2,8
Fc1ccc(-c2nc(N3CCN(c4ccccn4)CC3)ncc2-c2ncc[nH]2)cc1,-92*
COc1c(F)cccc1C(=O)NCC1CCN(C2CCOCC2)C1 (stereo not given),-4
O=C(NCc1cccnc1)C1CN(c2nccc(CCC(F)(F)F)n2)CCN1 (stereo not given),-21
COc1ccc(-c2nc3c([nH]2)c(=O)n(C)c(=O)n3C)cc1OC,20
COc1ccc2c3c([nH]c2c1)[C@H](CO)N(Cc1ccc(F)cc1)CC31CCN(Cc2ccccn2)CC1,-10
CCC(C(=O)Nc1ccc(NC(=O)c2ccc(C)o2)cc1)n1cccc1 (stereo not given),-11
COCC1CN(Cc2c(C)noc2C)Cc2ccnn2C1 (stereo not given),-2
CCn1c(CN2CCOCC2)nc2ccccc2c1=O,15
CC(=O)NCC(=O)N1CC[C@@H](O)[C@@H]1Cc1ccccc1,4
COc1ccc(-n2[nH]c3c4c(ncc3c2=O)CCCCC4)cc1,4
CC(C)N(C)C(=O)C1=NOC2(CCN(C(=O)c3ccccn3)C2)C1 (stereo not given),0
O=C1Cc2cc(Cl)ccc2N1,10
CC(=O)N1CCC(C(=O)NCc2ccccc2)(N(C(=O)c2ccc(C)cc2)c2ccc(Br)cc2)CC1,33
COc1ccccc1-c1nc(Cn2nnc(C(=O)Nc3ccc(C)cc3C)c2C)c(C)o1,176
C[C@@H]1CN([C@@H](C)CO)C(=O)c2cc(N(C)C)ccc2O[C@@H](C)CCCCO[C@@H]1CN(C)C(=O)NC1CCCCC1,165
C[C@@H](NC(=O)C[C@@H]1CC[C@@H]2[C@@H](COc3ccc(NC(=O)C4CCOCC4)cc3C(=O)N2C)O1)c1ccccc1,12
Cc1ccc2c(c1C)-n1cccc1C1(CCN(S(=O)(=O)c3cnc[nH]3)CC1)N2,6
# Next structures follow.
SMILES,Tg IFNy HTS
Cc1ccc(N=Nc2c(C)[nH]n(C(N)=S)c2=O)cc1,-50
O=C(c1cccc(F)c1)N1CCC2(CC(Oc3cccnc3)CO2)C1 (stereo not given),-6
COc1ccccc1/C=C/CN1CC[C@@H](c2sccc2C)[C@H](O)C1,-50
CN1CCN(c2ncnc3ccc(-c4cccc5[nH]ccc45)cc23)CC1,-76*
CN(Cc1ccsc1)c1cc(N2CCOCC2)nc(N)n1,8
CN(C)CCN1CCOCC2(CCN(C(=O)C3CCCO3)CC2)C1 (stereo not given),21
CCOc1ccc2oc(=O)cc(CN3CCN(Cc4nc(-c5ccccc5)oc4C)CC3)c2c1,5
CC(=O)N1CCC2(CC1)OC(=O)C(C)=C2C(=O)NCCCN1CCOCC1,33
CC(C)c1csc(CN2CCC(CNS(C)(=O)=O)C2)n1 (stereo not given),0
COc1cc(OC)c(NC(=O)Nc2ccc(-c3nc(-c4ccccc4)co3)cc2)cc1Cl,-85*
CCc1ccc2oc(=O)cc(CN3CCN(Cc4nc(-c5cccc(Cl)c5)oc4C)CC3)c2c1,-6
CC1=CC[C@@H]2CN(c3nc(C)ccc3C(N)=O)C[C@@H]2C1,10
Cc1cc2oc(=O)cc(C)c2cc1NC(=O)C1CC(C(C)C)=NO1 (stereo not given),9
CC1=CCC=CC1C(=O)Nc1ccc2c(c1)CCC(=O)N2C (stereo not given),72
N#Cc1cnc(Sc2nc3ccccc3s2)nc1N,-38

# The final 2 entries of the part above open the next one:
SMILES,Tg IFNy HTS
CC1=CCC=CC1C(=O)Nc1ccc2c(c1)CCC(=O)N2C (stereo not given),72
N#Cc1cnc(Sc2nc3ccccc3s2)nc1N,-38
CN(C)CCOCC1CN(C(=O)C2CCOC2)Cc2ccnn2C1 (stereo not given),5
O=C(O)c1cccnc1SCCCN1C(=O)c2cccc3cccc(c23)C1=O,8
CO[C@@H](C(=O)N(C)C[C@@H]1OCc2ccccc2-c2ccccc2C(=O)N([C@H](C)CO)C[C@H]1C)c1ccccc1,59
CC(=O)N1Cc2cc(C(=O)NCC(F)(F)F)nc(-c3cccc(-c4cccnc4)c3)c2[C@H]1CCO,-21
O=C(C[C@@H]1CC[C@@H]2[C@H](COC[C@H](O)CN2C(=O)Nc2cc(Cl)cc(Cl)c2)O1)N1CCOCC1,10
COc1cc(CNc2nn[nH]n2)cc(Br)c1OCc1ccc(C)cc1,51
COCCn1c(=O)[nH]c2cc(C(=O)NCc3ccc(OC(F)(F)F)cc3)ccc21,-38
CCOc1ccc(C(=O)N2C[C@@H](N)C[C@H]2C(=O)NC)cc1OCC,-46
O=C(CCc1ccc(-c2ccc(Cl)cc2)[nH]1)N1CCOC(C(F)(F)F)C1 (stereo not given),-4
CCn1c(C2CCCN(c3nc4ccccc4s3)C2)nn(C)c1=O (stereo not given),6
O=C(c1cc2cccnc2n(Cc2ccc(Cl)cc2)c1=O)N1CCN(c2ccc(F)cc2)CC1,-98*
CCCc1c(OCCCOc2ccc(OCC(=O)O)cc2)ccc(C(C)=O)c1O,8
COc1ccc(NC(=O)C(NC(=O)c2ccccc2NC(=O)c2ccco2)C(C)C)cc1 (stereo not given),-1
O=C(Nc1ccc2c(c1)OCCO2)c1csc(-c2cccc3c2CCO3)n1,51
CCn1nc(C(C)C(=O)N(C)Cc2nnc(-c3ccccc3)o2)c2ccccc2c1=O (stereo not given),-3
O=c1nc(Nc2ccc(OC(F)(F)F)cc2)c2ccccc2o1,-62
COc1ccc(OC)c(NC(=O)c2nnn(Cc3nc(-c4ccccc4OC)oc3C)c2C)c1,-11
N#CC1(C(=O)N2CCC(F)(F)C3(CCN(c4cnccn4)C3)C2)CC1 (stereo not given),-47
Cc1ccc(-c2nc(Cn3nnc(C(=O)Nc4cccc(Cl)c4)c3C)c(C)o2)cc1,196
c1ccc(-c2ncc(CN3CCC(OCc4cccnc4)CC3)cn2)nc1,4
Cc1c(C(=O)CN2C(=O)COc3ccccc32)c2ccccc2n1C,2
CCN1C[C@@H](COC)[C@@]2(CCN(C(=O)c3ccc4ccccc4c3)C2)C1,-4
CCC(=O)N(Cc1ccc(OC)cc1)Cc1cccc(C)c1,0
CO[C@H]1CN(C)C(=O)c2cc(NS(C)(=O)=O)ccc2OC[C@H](C)N(Cc2cncnc2)C[C@@H]1C,129
Cc1ccc(C(C)NC(=O)CN2C[C@H]3C[C@H](O)[C@@H](O)C[C@H]3C2)cc1 (stereo not given in full),8
O=C(c1cc(-c2ccn[nH]2)n2ccccc12)N1CCCCC1,-11
CN(C)CCNC(=O)c1ccnn1-c1ccc2ccccn12,-40
COCC1CN(S(=O)(=O)c2cn(C)cn2)Cc2c1cnn2C (stereo not given),-39
O=C(NC(=S)N1CCOCC1)c1ccccc1,24
Cc1nonc1OCCNC(=O)C12CC3CC(CC(C3)C1)C2,-1
C[C@@H]1CN([C@H](C)CO)C(=O)c2cc(NC(=O)CCC(F)(F)F)ccc2O[C@@H](C)CCCCO[C@H]1CN(C)C(=O)c1ccncc1,-2
Cn1ccnc1C(NC(=O)CCc1nc(-c2ccccn2)no1)c1ccc(F)cc1 (stereo not given),-37
Cc1noc(C)c1-c1nc2c([nH]1)CC(c1ccc(Cl)cc1)CNC2=O (stereo not given),-56
O=C(CN1CCOCC1)NC[C@@H]1N[C@@H](CO)[C@@H]1c1ccc(-c2ccccc2)cc1,-28
CCn1c(CNC(=O)C2CCC2)nc2c1CN(C(=O)Cc1ccc(Cl)cc1)CC2,-26
COc1cccc(-c2nc(Cn3nnc(C(=O)Nc4cc(F)ccc4C)c3C)c(C)o2)c1OC,97
CCn1cc2c(n1)CN(C(=O)CN(C)C)CC2COC (stereo not given),-30
C=CCC1NC(C)(C)Cc2ccccc21 (stereo not given),-5
Cc1ccc(S(=O)(=O)N2CCC3(CC2)NCCN=C3NCc2cccc(F)c2)c(C)c1,15
CN1CCn2c(-c3ccc(F)cc3)cnc2C12CCN(c1ncccn1)CC2,-27

# These rows are one share of the data; count on the stated rates, not on these rows.
